Ecoli growth: E. coli growth inhibition, primary screen, OD600 | Escherichia coli growth, 23 h; hits give low values | OD600 absorbance (test concentration not listed) | 330,000 tested, 0.21% active | AID 1053175, 2014;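 active = OD600 absorbance below the run mean of sample wells minus 3.6 SD, in any replicate, cut at about 0.56 in these data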;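 also: stock transfer was 300 nL into about 60 µL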
Beta cell apopt: inhibitors of cytokine-induced beta cell apoptosis, primary screen, luminescence; INS-1E cytokine-induced death, ATP luminescence, 48 h; percent of positive-control rescue, neutral wells zero; protection from apoptosis, % (no concentration beside the values); 300,000 tested, 0.8% active; AID 435005, 2010;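 active = all replicates at 75% or more, or half of them and the mean; inconclusive = half reach 75% but not the mean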;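 also: 0% = cytokine-treated negative control wells and 100% = positive control rescue; higher means more ATP so stronger rescue from cytokine killing; wells of about 40 µL received 100 nL stock; the first replicate is given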
T cruzi repl: inhibitors of intracellular T. cruzi growth, primary screen, luminescence, NIH3T3 host cells | T. cruzi beta-gal in NIH3T3, 90 h | inhibition, % (concentration not given with the values) | 300,000 tested, 1.4% active | AID 1885, 2009;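 active = mean inhibition across valid replicates above about 55%, limit read from the data; inconclusive = mean below that limit but half or more replicates reach it; inactive = mean below it, under half of replicates reach it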;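 also: signal also drops with host cell toxicity which is not excluded here; 0% = plate median of DMSO wells and 100% = zero luminescence signal; higher percent means less beta-gal luminescence so fewer parasites; stock transfer was 50 nL into about 50 µL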
UCH37 DUB inh: inhibitors of human UCH37 deubiquitinase, primary screen, biochemical, Ub-AMC cleavage, fluorescence; inhibition, % (no concentration beside the values); purified proteasome/UCH37; AID 588478, 2011; Ubiquitin carboxyl-terminal hydrolase isozyme L5 (Homo sapiens), Q9Y5K5; 330,000 tested, 0.33% active;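 active = mean of two replicates above 20%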;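 also: 0% = compound-free wells with enzyme and 100% = wells lacking proteasome; stock transfer was 100 nL into about 20 µL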
Target sequence (Q9Y5K5 whole entry, looked up): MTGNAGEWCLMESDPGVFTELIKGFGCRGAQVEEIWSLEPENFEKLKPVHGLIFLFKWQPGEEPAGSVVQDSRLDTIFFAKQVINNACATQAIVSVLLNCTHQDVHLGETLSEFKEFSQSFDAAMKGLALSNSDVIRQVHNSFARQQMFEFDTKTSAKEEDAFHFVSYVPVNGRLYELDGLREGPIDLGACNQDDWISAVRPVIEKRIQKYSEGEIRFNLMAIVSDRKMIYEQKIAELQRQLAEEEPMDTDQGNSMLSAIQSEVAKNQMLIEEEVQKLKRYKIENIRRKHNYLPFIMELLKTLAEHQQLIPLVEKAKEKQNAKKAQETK
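Material: Human UCH37 enzyme supplied as purified proteasome complex | Schedule: 30 min preincubation with enzyme, 25 min cleavage at room temperature | Detection: AMC fluorescence 355/460 nm | Measure: % inhibition of Ub-AMC cleavage fluorescence | Controls: Wells without proteasome as full block, compound-free enzyme plus substrate as uninhibited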
Bfl-1 A1 inh: caspase 3/7 activation in MEF A1-2A-BIM cells, primary screen, A1 inhibitor project, cell-based, luminescence, HTS; Caspase-Glo 3/7 luminescence, 3 h; percent of clofoctol response, vehicle zero; caspase activation, % (no concentration beside the values); AID 2462, 2010; 330,000 tested, 0.066% active;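 active = over half of replicate activation scores above 10%, or exactly half above 10 with the replicate mean above 10; inconclusive = replicate mean below 10 yet half the replicates above 10; inactive = over half of replicates below 10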;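 also: wells of about 30 µL received 50 nL stock; many hits fall short of the cut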
rRNA inh HTS: reduced GFP signal of wild-type E. coli, primary screen, bacterial rRNA inhibitor project, GFP/RFP fluorescence, OD600, single point. 350,000 tested, 1.6% active. E. coli WT GFP vs humanized-ribosome RFP mutants, 24 h; hits give low values; DMSO median 0, no signal -100. AID 720706, 2013. GFP signal change (wild-type ribosome), % (test concentration not listed);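 active = significant combined selectivity score with lowered wild-type GFP, culture density cut under 30%, mutant RFP and density less affected; inactive = any of these conditions unmet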; also: one replicate is shown; some compounds called inactive have numbers as strong as hits
FGF22 binding: binders of human FGF22 protein, primary screen, FGF22 synaptogenesis inhibitor project, biophysical, thermal shift, single point; 340,000 tested, 1.5% active; Fibroblast growth factor 22 (Homo sapiens), Q9HCT0; calls only at 9.99 µM; recombinant FGF22 thermal shift, SYPRO orange fluorescence; percent of sucrose octasulfate shift, DMSO zero;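 active = melting point raised past a set limit in the mean and every replicate; inconclusive = no clear call; three in four hits are not shown here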
Target sequence (Q9HCT0 whole entry, looked up): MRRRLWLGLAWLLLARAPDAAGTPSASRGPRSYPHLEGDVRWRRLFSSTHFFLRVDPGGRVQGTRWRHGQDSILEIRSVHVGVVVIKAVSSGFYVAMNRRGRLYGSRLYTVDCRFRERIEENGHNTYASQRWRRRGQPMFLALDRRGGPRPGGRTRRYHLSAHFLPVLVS
AF4-AF9 inh: inhibitors of AF4 peptide binding to AF9, primary screen, biochemical, AlphaScreen, biotin-AF4 peptide, FLAG-AF9, single point. inhibition, % at 10 µM. 350,000 tested, 0.47% active;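 active = every replicate reaching a set inhibition limit, whatever the replicate mean, cut at about 25% in these data; inconclusive = mean inhibition reaches that limit but some replicates miss it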;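 also: 0% = plate neutral control median and 100% = total signal loss; the record names both 10 and 1 µM as test concentration; the first replicate is given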
Target sequence (P42568 whole entry, looked up): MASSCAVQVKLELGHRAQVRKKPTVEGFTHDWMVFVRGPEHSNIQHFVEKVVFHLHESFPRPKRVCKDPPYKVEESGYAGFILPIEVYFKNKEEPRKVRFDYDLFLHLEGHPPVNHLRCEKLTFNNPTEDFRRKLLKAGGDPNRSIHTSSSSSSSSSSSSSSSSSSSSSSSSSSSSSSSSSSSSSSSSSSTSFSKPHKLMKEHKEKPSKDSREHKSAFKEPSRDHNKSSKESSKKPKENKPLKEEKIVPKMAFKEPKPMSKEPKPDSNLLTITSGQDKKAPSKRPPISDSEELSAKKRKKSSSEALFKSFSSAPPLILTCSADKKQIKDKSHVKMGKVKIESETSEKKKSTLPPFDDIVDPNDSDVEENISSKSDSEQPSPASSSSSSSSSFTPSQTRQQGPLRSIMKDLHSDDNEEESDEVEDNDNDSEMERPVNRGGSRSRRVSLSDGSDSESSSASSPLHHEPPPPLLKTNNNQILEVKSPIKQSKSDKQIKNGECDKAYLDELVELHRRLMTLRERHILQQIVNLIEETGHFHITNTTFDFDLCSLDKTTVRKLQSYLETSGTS
rRNA inh HTS OD600: also measured in rRNA inh HTS; calls as there; OD600 change, %; measured here: OD600 growth;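 optical density of the mix in the first replicate; 0 = DMSO median and -100 = no signal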
rRNA inh HTS RFP: further read-out of rRNA inh HTS, marked with its call; RFP signal change, %; measured here: RFP humanized mutant strains;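 first replicate; 0 = DMSO median and -100 = no signal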
Starred values were filed as active, the others as inactive; i = inactive; u = inconclusive; x = no result given. These rows are one share of the data; the hit share may differ from the screen's.

SMILES	Ecoli growth	Beta cell apopt	T cruzi repl	UCH37 DUB inh	Bfl-1 A1 inh	rRNA inh HTS	rRNA inh HTS OD600	rRNA inh HTS RFP	FGF22 binding	AF4-AF9 inh
CC(OC(=O)CCC(=O)c1cccs1)C(=O)NC1CCCCC1C (centres undefined)	0.6	2	x	0.2	-0.5	7	14	-0.8	i	-5.9
O=C(COc1ccc(Br)cc1)N1CCNC1=O	0.7	x	-29	2.2	x	0	1	1.2	i	-0.4
Cc1cccc(N2CCN(C(=O)c3ccc4c(c3)NC(=O)C(CSCc3cccc(F)c3)N4)CC2C)c1 (centres undefined)	x	-9	-4	x	-0.1	5	-5	0.5	i	-1.3
CC(C)(C)[C@H]1C=C(C(=O)NCc2ccccc2)O[C@@H](OCCCCO)C1	x	-4	20	-1.9	-0.6	x	x	x	i	-3.4
Cc1ccc(C)c(NC(=S)NC2CC3CCC(C2)N3Cc2ccco2)c1 (centres undefined)	0.64	-11	-18	2.7	0.8	x	x	x	x	x
COc1ccc(/C=C/C(=O)Nc2cccc(C(C)=O)c2)cc1	0.69	1	-8	1.2	-3.1	-6	-8	0.9	i	3.1
O=C(NC1CCCC1)c1ccc(Cl)c(S(=O)(=O)N2CCCCC2)c1	0.68	0	4	-2.1	-0.2	4	12	-0.5	i	2.6
CCN(CC)c1ccc(NC(=O)COC(=O)c2ccc3ccccc3n2)cc1	0.69	7	-6	5.6	-0.8	x	x	x	x	x
COc1ccc(S(=O)(=O)N2CCOCC2)cc1NC(=O)CSc1nnc(NC2CC2)s1	0.71	0	x	1.5	0.3	4	-2	0.9	i	-11
O=C(CCCc1nc2ccccc2s1)NNC(=O)CCN1CCN(Cc2ccccc2)CC1	0.67	-1	-1	1.5	0.8	-4	2	0.9	i	1.0
Cc1cccc(C)c1C(=NCCN(C)C)c1ccccc1	0.67	12	14	0.5	0.2	8	-11	-0.1	i	2.1
CC(C)c1ccccc1NC(=O)CN1C(=O)c2ccccc2C1=O	x	-5	0	x	u	5	6	1.4	i	0.1
O=C(NCc1ccccc1)c1ccc(CSc2ccccc2)o1	0.68	-3	-5	2.0	0.4	-43	-65	-20	i	-1.1
COc1cc(CNC(=O)C2CC2)ccc1OCc1ccccc1	0.67	6	-6	0.8	1.3	3	3	2.0	i	-2.1
O=C(CN1C(=O)NC2(CCCc3ccccc32)C1=O)NCc1ccco1 (centres undefined)	0.69	-6	-2	4.5	0.3	x	x	x	x	x

The closing 3 compounds of the part before come first, to join the parts:
SMILES	Ecoli growth	Beta cell apopt	T cruzi repl	UCH37 DUB inh	Bfl-1 A1 inh	rRNA inh HTS	rRNA inh HTS OD600	rRNA inh HTS RFP	FGF22 binding	AF4-AF9 inh
O=C(NCc1ccccc1)c1ccc(CSc2ccccc2)o1	0.68	-3	-5	2.0	0.4	-43	-65	-20	i	-1.1
COc1cc(CNC(=O)C2CC2)ccc1OCc1ccccc1	0.67	6	-6	0.8	1.3	3	3	2.0	i	-2.1
O=C(CN1C(=O)NC2(CCCc3ccccc32)C1=O)NCc1ccco1 (centres undefined)	0.69	-6	-2	4.5	0.3	x	x	x	x	x
CC1CCC(NC(=O)CCNS(=O)(=O)c2ccccc2)CC1 (centres undefined)	0.69	1	-4	-2.5	-0.3	5	3	2.9	i	-0.6
O=C(CN1C(=O)c2cccc3cccc1c23)Nc1ccccc1	0.72	1	5	-62	0.3	11	6	-0.5	i	-0.6
CCCn1c(C)cc(/C=C(\C#N)C(=O)OCC(=O)Nc2cc(OC)c(OC)c(OC)c2)c1C	0.7	-16	0	9.4	0.9	x	x	x	x	x
COc1cccc(CNS(=O)(=O)c2cc3c(cc2C)NC(=O)CO3)c1	0.77	-4	0	0.0	0.2	-6	-4	-0.7	i	-4.1
Nc1nc(SCC(=O)O)[nH]c(=O)c1NC(=O)c1ccco1	0.7	3	-25	3.1	-1.2	13	5	0.3	i	-1.6
COC(=O)C(CCSC)NC(=O)C12CC3CC(CC(C3)C1)C2 (centres undefined)	0.65	-6	-8	3.0	-0.7	8	8	2.5	i	1.8
Cc1cc(C)c(S(=O)(=O)c2cc(F)ccc2C)c(Cl)n1	0.68	-7	65*	3.0	1.6	0	-9	-1.2	i	-1.2
Cc1onc(-c2ccccc2)c1C(=O)N/N=C/c1ccc(O)c([N+](=O)[O-])c1	x	-6	-6	x	-0.2	-4	-6	-3.5	i	3.1
CCc1ccc(C(C)NC(=O)Cn2cnc3c(=O)n(C)c(=O)n(C)c32)cc1 (centres undefined)	0.68	x	-38	3.4	0.3	9	8	1.2	x	x
CC(=O)N1N=C(c2c(-c3ccccc3)c3cc(C)ccc3[nH]c2=O)CC1c1ccco1 (centres undefined)	0.69	x	25	-43	0.9	-15	-23	22	i	4.1
CCCC(=O)Nc1ccc(Cl)c(NC(=O)c2cccnc2Cl)c1	0.67	-8	1	0.8	-0.2	x	x	x	x	x
Cc1ccc(O)c(NC(=O)C2CC(c3cccc(Br)c3)=NO2)c1 (centres undefined)	x	-3	-10	x	0.2	0	-2	3.0	i	2.3
COCCC(=O)N1CCC(Oc2ccc(C(=O)NCc3ccon3)cc2)CC1	0.71	1	-5	-1.5	0.7	19	17	3.4	i	-0.4
CCn1ccnc1CNC(=O)CC1C(=O)NCCN1Cc1ccccc1F (centres undefined)	0.73	-11	2	-5.0	-0.6	9	8	0.8	i	-19
CCN(CC(=O)NCc1cccs1)C(=O)c1cccc(S(=O)(=O)NC)c1	x	0	3	x	-0.8	13	16	2.7	i	-0.5
COC(=O)c1sc(N)c(C(=O)OC)c1COC(=O)CNS(=O)(=O)c1ccc(C)c(C)c1	0.71	0	6	-0.1	0.9	-14	-14	15	i	8.4
O=C(CC(=O)c1ccccc1)Nc1cccnc1	0.66	0	-14	1.3	0.3	1	1	-3.1	i	-2.2
COc1ccc(-c2nc(-c3ccncc3)no2)c(OC)c1	0.67	-5	-5	0.5	-6.4	7	7	-1.0	i	-0.1
O=C(OCc1nc2ccc(Cl)cc2n1CCO)c1ccccc1	0.66	-10	-14	0.8	1.1	x	x	x	x	x
Cc1cccc(OCCN2C(=O)c3ccccc3C2=O)c1	0.66	-3	-4	-1.4	-2.3	-23	-25	-3.8	i	2.8
NC(=O)c1ccc(NC(=S)NCc2ccco2)cc1	0.66	-2	-13	3.6	0.8	6	8	-6.1	i	-0.9
CC1=NN(c2ccc(Cl)c(C(=O)O)c2)C(=O)C1	0.71	x	-9	5.1	0.0	x	x	x	i	2.6
COc1cccc(S(=O)(=O)NCc2ccc(C(=O)N3CCN(c4ccccc4OC)CC3)cc2)c1	x	x	-2	x	-0.3	7	-1	4.7	i	-2.4
CN1C(=O)CC(n2c(CO)nc3ccccc32)C1=O (centres undefined)	0.71	-6	-6	1.1	1.4	x	x	x	x	x
CCC(=O)N1c2ccc(S(=O)(=O)CCC(=O)NCCC3=CCCCC3)cc2CC1C (centres undefined)	0.72	3	-18	11	-0.2	x	x	x	x	x
CCn1cc(CNC(=O)/C=C/c2ccc([N+](=O)[O-])cc2)c(C)n1	0.72	-1	-8	5.4	0.3	x	x	x	x	x
CC(=O)c1ccc(N2CCN(C(=O)c3ccc(Cl)c(S(=O)(=O)NC4CC4)c3)CC2)c(F)c1	0.7	x	x	5.9	x	-9	-9	3.6	i	-3.2
COc1ccccc1/C=C/C(=O)Nc1nc(N)n(-c2ccccc2)n1	0.62	-4	0	8.4	0.9	-25*	2.7*	5.8*	i	0.2
CC(=O)NNS(=O)(=O)c1scc(S(=O)(=O)c2ccc(Cl)cc2)c1C	0.68	-10	1	2.8	0.5	5	8	1.9	i	-4.1
c1cncc(-c2nnc3n2N=C(c2cccs2)CS3)c1	0.69	-1	8	7.1	-0.2	x	x	x	x	x
CCCNC(=O)c1onc(CSc2ccc(F)cc2)c1C(=O)NCCOC	0.7	1	-3	2.2	0.0	-6	-5	-11	i	1.4
S=C(NCC1CCCO1)Nc1cc(Cl)c(Cl)cc1Cl (centres undefined)	0.65	-4	-14	2.7	0.0	-30	-37	-5.3	i	-2.4
NC(=S)NC1CC2CC1C1C=CCC21 (centres undefined)	0.69	-3	1	5.2	0.5	8	-5	-1.2	i	1.1
O=C(COc1ccccc1)NCc1nnc(SCC(=O)Nc2nccs2)n1-c1ccccc1	0.73	-2	-2	2.4	-0.5	-6	5	-8.5	i	2.1
O=C(Cn1cnc2ccccc2c1=O)Nc1ccc(S(=O)(=O)N2CCOCC2)cc1	0.74	x	14	0.4	-0.4	-7	-1	-1.5	i	-1.6
CCOC(=O)C1CCN(c2c(Nc3ccc(C)c(C)c3)c(=O)c2=O)CC1	0.69	-3	4	12	0.8	1	-1	1.1	i	10
COc1ccccc1CNC(=S)NCCc1ccccc1	0.7	-5	10	3.5	-0.3	x	x	x	i	-4.5
CC(=O)Oc1ccccc1-n1c(C)nc(=O)c(-c2ccccc2)c1C	0.66	-3	-1	3.8	-0.5	x	x	x	i	-1.2
NC(=O)CSc1nc2ccccc2n1-c1ccccc1	0.67	-4	-11	4.9	0.1	-20	-11	-1.0	i	4.3
Clc1ccc(C(c2ccccc2Cl)C(Cl)Cl)cc1 (centres undefined)	0.7	x	x	-0.4	0.2	6	-14	3.7	i	0.8
COc1ccccc1CNC(=O)Cc1c[nH]c2ccccc12	0.67	-5	5	-0.4	0.8	-2	-7	3.4	i	2.7
CC(=O)Oc1ccc(C(=O)Nc2cc(C)on2)cc1	0.65	x	-9	1.9	-3.5	12	14	7.0	i	3.2
Cc1cccc(C2c3[nH]c4ccccc4c3CCN2Cc2cnn(-c3ccc(F)cc3)c2)n1 (centres undefined)	0.73	-6	27	-0.6	1.4	x	x	x	x	x
N#C/C(=C1/C(=O)Nc2ccc(Br)cc21)c1ccccn1	x	-6	4	-0.1	0.9	7	12	0.1	i	0.1
COc1ccc(/C=C/C(=O)c2ccccc2)cc1COc1ccc(F)cc1	0.68	3	3	9.6	0.7	12	12	-3.4	i	-99
CCOC(=O)C1C(=O)C=C(c2ccc(Br)cc2)CC1c1ccco1 (centres undefined)	0.7	9	31	1.1	0.0	x	x	x	x	x
COc1ccc(Cl)cc1NC(=O)NC(C)C(C)(C)C (centres undefined)	0.69	4	12	1.5	0.7	-1	1	0.0	i	-1.0
